# Source: PubChem BioAssay
# PV pol inh = poliovirus RNA polymerase inhibition | P03300 | poliovirus polymerase elongation, fluorescence polarization; active compounds read low | % elongation, % (compound at 16.7 µg/mL) | actives 0.66% (n = 150,000) | AID 588519; in the data active = % elongation below about 90%; also: some results filed as inactive read as strong as hits
# Target sequence (P03300 1749-2209 limits assumed): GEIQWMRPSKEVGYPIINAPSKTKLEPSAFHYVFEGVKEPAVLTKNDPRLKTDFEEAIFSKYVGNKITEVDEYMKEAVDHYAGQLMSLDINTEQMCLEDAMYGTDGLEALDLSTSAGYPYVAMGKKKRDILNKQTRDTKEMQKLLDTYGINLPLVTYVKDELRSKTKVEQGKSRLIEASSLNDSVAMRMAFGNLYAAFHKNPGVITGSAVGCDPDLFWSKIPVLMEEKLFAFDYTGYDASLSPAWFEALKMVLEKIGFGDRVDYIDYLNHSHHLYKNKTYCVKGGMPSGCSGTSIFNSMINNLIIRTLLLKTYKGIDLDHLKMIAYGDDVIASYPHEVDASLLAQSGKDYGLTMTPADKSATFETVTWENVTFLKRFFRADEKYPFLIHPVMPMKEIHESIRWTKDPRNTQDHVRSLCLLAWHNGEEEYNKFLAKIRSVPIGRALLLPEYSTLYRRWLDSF
# PV pol inh intensity = also measured in PV pol inh; calls as there; % elongation; measured here: total intensity read-out; formula for this scale not given here;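 total fluorescence in place of polarization; lower means less elongation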
# Active calls of the source: *. A portion of the library. The share of hits here may be higher or lower than overall.
# Sample of the layout (2 entries):
SMILES,PV pol inh,PV pol inh intensity
CCc1ccc(-n2c(=O)c3c4c(sc3n(Cc3ccc(C)cc3)c2=O)CCC4)cc1,104,103
CC(C)c1nn2c(=O)cc(COC(=O)c3ccco3)nc2s1,110,104

# The listing, from the start:
SMILES,PV pol inh,PV pol inh intensity
CCc1ccc(-n2c(=O)c3c4c(sc3n(Cc3ccc(C)cc3)c2=O)CCC4)cc1,104,103
CC(C)c1nn2c(=O)cc(COC(=O)c3ccco3)nc2s1,110,104
Fc1ccc(-n2ncc3c(Nc4ccc(Oc5ccc(Cl)cc5)cc4)ncnc32)cc1,111,115
CC(=O)c1cccc(NC(=O)Cn2c(=O)oc3cc(S(=O)(=O)NC4CCCC4)ccc32)c1,104,109
COc1ccccc1NC(=O)Cn1c(=O)n(Cc2ccccc2)c(=O)c2sc3ccccc3c21,103,102
CCn1c(=O)cc(OCC(=O)N2CCN(c3ccccc3OC)CC2)c2ccccc21,109,109
O=C(NCCc1csc(-c2ccc(F)cc2)n1)c1cccs1,102,108
Cc1cc(C)cc(NC(=O)c2cc(CN3CCCC3)on2)c1,102,110
Cc1ccc(CNC(=O)CSc2n[nH]c(-c3ccc(F)cc3)n2)cc1,103,101
CC1=C(C(N)=O)C(c2cccc(C)c2)n2nc(-c3cccc(C)c3)nc2N1 (stereo not given),106,109
Cc1ccc(CCNC(=O)C(C)n2nc(C)c3c(C)n(-c4ccc(C)cc4)nc3c2=O)cc1 (stereo not given),108,103
CCOc1ccc(NS(=O)(=O)c2ccc3[nH]cc(C(=O)NCCOC)c(=O)c3c2)cc1,111,107
CCc1cccc(NC(=O)Cn2c(=O)ccc3cc(S(=O)(=O)N4CCC(C)CC4)ccc32)c1,104,89
Cc1ccccc1-c1nnc(CN2CCN(c3ccccn3)CC2)o1,107,102
O=C(CN1C(=O)CSc2ccc(S(=O)(=O)N3CCCCC3)cc21)NCc1ccc(F)cc1Cl,116,120
COc1ccc(C(=O)c2c(N)c(-c3nc(-c4ccc5c(c4)OCO5)cs3)c3ccccn23)cc1,112,103
CCN1CCN(c2cc(C)c3cc(NC(=O)c4cc(Cl)ccc4OC)ccc3n2)CC1,102,93
Cc1ccc(C)c(NC(=O)Cn2c(=O)n(-c3ccccc3C)c(=O)c3c2c2cc(C)ccc2n3C)c1,103,99
O=C(Nc1ccc(F)c(Cl)c1)N1CC=C(c2c[nH]c3ccccc23)CC1,124,164
COc1ccc(CNC(=O)Cn2nnc(-c3ccc(S(C)(=O)=O)cc3)n2)cc1,104,109
CC(C)(C)C(=O)Cn1c(=O)n(-c2ccc(Cl)c(Cl)c2)c(=O)c2c3c(sc21)CCCC3,107,105
Cc1ccc(CCNC(=O)CCCn2nc(C)c3c(C)n(-c4ccccc4)nc3c2=O)cc1,105,108
COc1cc(OC)c(NC(=O)Cc2c(C(=O)O)c(C)cn2C)cc1Cl,105,106
COC(=O)c1cc(NC(=O)CCc2c(C)nc3nc(C)nn3c2C)cc(C(=O)OC)c1,104,107
Cc1cccc(C)c1NC(=O)CSCc1cnn(-c2ccccc2)c1-n1cccc1,108,114
COc1cc(-c2nnc(SCC(=O)N3CCCc4ccccc43)o2)cc(OC)c1OC,109,113
CC(C)c1ccc(OCC(=O)N2CCN(CCc3ccncc3)CC2)cc1,101,105
Cc1cccc(N2CCN(C(=O)Cn3ncc4c5ccccc5n(C)c4c3=O)CC2C)c1 (stereo not given),111,108
CCOC(=O)N1CCc2c(sc3c2c(=O)n(CCc2ccccc2)c(=O)n3Cc2c(F)cccc2Cl)C1,106,112
CCC(C(=O)Nc1ccc(C(=O)OC)cc1)n1nc(-c2ccc(C)c(C)c2)ccc1=O (stereo not given),99,95
Cc1[nH]c2ccccc2c1C(=O)C(=O)NC1CC(=O)N(c2cccc(F)c2)C1 (stereo not given),109,108
Cc1noc(-c2ccc(-c3noc(-c4ccc([N+](=O)[O-])c(C)c4)n3)cc2)n1,109,105
COc1ccc2oc(=O)c(-c3nc(-c4cc(OC)c(OC)c(OC)c4)no3)cc2c1,114,111
Cc1ccccc1C(=O)Nc1nnc(S(=O)(=O)N2CCCc3ccccc32)s1,115,104
COc1ccccc1CN1CCN(C2CCN(C(=O)NC(C)C)CC2)C(=O)C1=O,108,112
O=S(=O)(NCC(c1ccco1)N1CCN(c2ccccc2)CC1)c1ccccc1 (stereo not given),106,104
Cc1ccc2c(C)c(C(=O)N(Cc3ccc(Cl)cc3)C3CCS(=O)(=O)C3)oc2c1 (stereo not given),108,106
COc1ccc(C)cc1NC(=O)C(CCSC)NS(=O)(=O)c1ccc2c(c1)oc(=O)n2C (stereo not given),103,105
O=C(CCn1cnnn1)Nc1cc(C(F)(F)F)cc(C(F)(F)F)c1,102,100
CCOc1ccc(CNC(=O)Cn2cc3c(n2)-c2c(oc(C(=O)N4CCCC4)c2C)CC3)cc1,110,109
Cc1ccccc1N(C)C(=O)c1noc2c1COc1ccccc1-2,115,115
COc1ccc(NC(=O)Nc2sc3nc4n(c(=O)c3c2C)CCC(C)CC4)cc1OC (stereo not given),109,112
Cc1ccccc1NC(=O)CSC1=Nc2ccccc2C2=NC(CCC(=O)NCc3ccccc3)C(=O)N12 (stereo not given),111,108
COc1cc(/C=C/c2nc3cc(Cl)ccc3c(=O)n2-c2cccc(C(F)(F)F)c2)cc(OC)c1OC,111,113
COc1ccc(CNC(=O)c2ccc(CNS(=O)(=O)c3ccc(OC)cc3)cc2)cc1,110,109

# Some of the entries above in another layout:
SMILES | PV pol inh | PV pol inh intensity
Cc1ccc(CCNC(=O)CCCn2nc(C)c3c(C)n(-c4ccccc4)nc3c2=O)cc1 | 105 | 108
COc1cc(OC)c(NC(=O)Cc2c(C(=O)O)c(C)cn2C)cc1Cl | 105 | 106
COC(=O)c1cc(NC(=O)CCc2c(C)nc3nc(C)nn3c2C)cc(C(=O)OC)c1 | 104 | 107
Cc1cccc(C)c1NC(=O)CSCc1cnn(-c2ccccc2)c1-n1cccc1 | 108 | 114
COc1cc(-c2nnc(SCC(=O)N3CCCc4ccccc43)o2)cc(OC)c1OC | 109 | 113
CC(C)c1ccc(OCC(=O)N2CCN(CCc3ccncc3)CC2)cc1 | 101 | 105
Cc1cccc(N2CCN(C(=O)Cn3ncc4c5ccccc5n(C)c4c3=O)CC2C)c1 (stereo not given) | 111 | 108
CCOC(=O)N1CCc2c(sc3c2c(=O)n(CCc2ccccc2)c(=O)n3Cc2c(F)cccc2Cl)C1 | 106 | 112
CCC(C(=O)Nc1ccc(C(=O)OC)cc1)n1nc(-c2ccc(C)c(C)c2)ccc1=O (stereo not given) | 99 | 95
Cc1[nH]c2ccccc2c1C(=O)C(=O)NC1CC(=O)N(c2cccc(F)c2)C1 (stereo not given) | 109 | 108
Cc1noc(-c2ccc(-c3noc(-c4ccc([N+](=O)[O-])c(C)c4)n3)cc2)n1 | 109 | 105
COc1ccc2oc(=O)c(-c3nc(-c4cc(OC)c(OC)c(OC)c4)no3)cc2c1 | 114 | 111
Cc1ccccc1C(=O)Nc1nnc(S(=O)(=O)N2CCCc3ccccc32)s1 | 115 | 104
COc1ccccc1CN1CCN(C2CCN(C(=O)NC(C)C)CC2)C(=O)C1=O | 108 | 112
O=S(=O)(NCC(c1ccco1)N1CCN(c2ccccc2)CC1)c1ccccc1 (stereo not given) | 106 | 104
Cc1ccc2c(C)c(C(=O)N(Cc3ccc(Cl)cc3)C3CCS(=O)(=O)C3)oc2c1 (stereo not given) | 108 | 106
COc1ccc(C)cc1NC(=O)C(CCSC)NS(=O)(=O)c1ccc2c(c1)oc(=O)n2C (stereo not given) | 103 | 105
O=C(CCn1cnnn1)Nc1cc(C(F)(F)F)cc(C(F)(F)F)c1 | 102 | 100
CCOc1ccc(CNC(=O)Cn2cc3c(n2)-c2c(oc(C(=O)N4CCCC4)c2C)CC3)cc1 | 110 | 109
Cc1ccccc1N(C)C(=O)c1noc2c1COc1ccccc1-2 | 115 | 115
COc1ccc(NC(=O)Nc2sc3nc4n(c(=O)c3c2C)CCC(C)CC4)cc1OC (stereo not given) | 109 | 112
Cc1ccccc1NC(=O)CSC1=Nc2ccccc2C2=NC(CCC(=O)NCc3ccccc3)C(=O)N12 (stereo not given) | 111 | 108
COc1cc(/C=C/c2nc3cc(Cl)ccc3c(=O)n2-c2cccc(C(F)(F)F)c2)cc(OC)c1OC | 111 | 113
COc1ccc(CNC(=O)c2ccc(CNS(=O)(=O)c3ccc(OC)cc3)cc2)cc1 | 110 | 109

# (cont.)
SMILES,PV pol inh,PV pol inh intensity
CCC(Cc1ccccc1)NC(=O)CN1C(=O)COc2ccc(S(=O)(=O)N3CCCCCC3)cc21 (stereo not given),105,108
CCOc1ccc(CCNC(=O)c2cc3c(=O)n(C)c4ccccc4c3n2C)cc1,105,109
COc1cccc2cc(C(=O)Nc3ccc(F)c(F)c3)c(=O)oc12,108,107
COc1ccc(-n2nc(C(=O)NCCc3ccc(OC)c(OC)c3)c3c4ccccc4n(C)c3c2=O)cc1,113,113
COc1cc(NC(=O)C(CC(C)C)NS(=O)(=O)c2ccc3c(c2)CCN3C(C)=O)cc(OC)c1 (stereo not given),107,109
N#Cc1cc2c(nc1SCC(=O)Nc1ccc(Cl)c(C(F)(F)F)c1)C1CCN2CC1,104,105
CC(=O)c1ccc(NC(=O)CCc2c(C)nc3c(c2C)c(=O)n(C)c(=O)n3C)cc1,106,110
COc1ccc(OC)c(CNS(=O)(=O)c2cc(-c3onc(C)c3C)ccc2C)c1,113,117
O=C(COc1ccc(Cl)cc1Cl)Nc1cccc2cccnc12,107,110
Cc1ccc(S(=O)(=O)Nc2cc3c(C(=O)OCc4ccccc4)c(C)oc3c3ccccc23)cc1,107,116
Cc1ccccc1NC(=O)CCn1nc(-c2ccccc2)c2ccccc2c1=O,103,104
O=C(Nc1ccc(F)c([N+](=O)[O-])c1)c1cccn(Cc2ccccc2)c1=O,103,101
CCc1ccc(C2c3c(oc4ccc(F)cc4c3=O)C(=O)N2CCc2ccc(OC)cc2)cc1 (stereo not given),105,112
CC(C)(C)c1ccc(Oc2nc3ccccn3c(=O)c2/C=C(\C#N)c2nc3ccccc3[nH]2)cc1,109,115
COc1ccc(CNC(=O)Cn2c(=O)oc3cc(S(=O)(=O)N4CCCC4)ccc32)cc1,103,105
CCc1ccccc1NC(=O)CCCSc1nc(-c2ccco2)cc(C(F)(F)F)n1,106,111
Cc1ccccc1C(=O)Nc1nc2c(s1)CC(C(C)(C)C)CC2 (stereo not given),111,108
COc1ccc(OCC(=O)Nc2ccc(C(=O)OCc3cc(=O)n4nc(C)sc4n3)cc2)cc1,110,98
CCCCC(=O)Nc1ccc(OCc2cc(=O)n3c(C)csc3n2)cc1,107,112
COc1ccc(N2CCN(S(=O)(=O)c3c(C)nc4sc(C)cn4c3=O)CC2)cc1,106,104
O=C(CSc1nc2cc(C(=O)NC3CCCC3)ccc2c(=O)n1CC1CCCO1)c1cccc(Cl)c1 (stereo not given),100,105
Cc1ccc(S(=O)(=O)c2nnn3c2nc(N2CCOCC2)c2sccc23)cc1C,105,103
CCN(CC)C(=O)Cn1c(=O)n(CCCCCC(=O)NCc2ccc(C)cc2)c(=O)c2sccc21,104,107
Cc1ccc(OCCCn2c(-c3ccc(Cl)cc3)nc3ccccc3c2=O)c(C)c1,106,107
CC(C)CCNC(=O)c1cc(Sc2ccc(F)cc2F)nc2ccccc12,111,111
COc1ccc(CCn2c3c(c(=O)[nH]c2=O)C(NC(=O)c2ccc(C(C)(C)C)cc2)(C(F)(F)F)C(=O)N3)cc1OC (stereo not given),100,101
CCCCN(CC)C(=O)Nc1ccc2c(c1)N(C)C(=O)c1ccccc1S2,108,108
COC(=O)c1ccccc1NC(=O)Cn1c(=O)n(-c2cccc(C(F)(F)F)c2)c(=O)c2c(C)c(C)sc21,102,106
O=C(CSc1n[nH]c(-c2ccc(F)cc2)n1)NCCc1ccccc1,105,102
Cc1ccc(CNc2ncnc3c2c(-c2ccccc2)cn3-c2cccc(Cl)c2)cc1,107,112
COc1ccc(NC(=O)Cn2ncc3c2-c2ccccc2OC3)cc1Cl,107,111
Cn1c(SCc2cc(=O)c3cc(Cl)ccc3[nH]2)nnc1-c1ccccc1,102,99
COc1ccc(C(CNC(=O)COc2ccc(C)cc2)N2CCCCC2)cc1 (stereo not given),107,98
Cc1csc2nc(COC(=O)c3cccc(NC(=O)COc4ccccc4Cl)c3)cc(=O)n12,106,109
Cc1cccc(N(C)S(=O)(=O)c2ccc(-c3cc(C)no3)s2)c1,107,96
CCc1ccccc1NC(=O)C(C)n1nc(-c2ccc(C)c(C)c2)ccc1=O (stereo not given),104,107
Cc1ccc(CNc2nc3c(S(=O)(=O)c4ccccc4)nnn3c3ccsc23)cc1,99,102
Cc1nn2c(-c3cccc(NC(=O)c4ccc(Cl)cc4)c3)nnc2c2ccccc12,105,101
COc1ccc(C(=O)CSc2nc3cc(C(=O)NC4CCCC4)ccc3c(=O)n2CC2CCCO2)cc1 (stereo not given),108,110
COc1ccc(OC)c(CCNC(=O)Cn2nc(C)n3c(cc4sccc43)c2=O)c1,109,112
O=C(Cn1c(-c2cccs2)cc2cc(F)ccc21)N1CCN(c2cccc(Cl)c2)CC1,110,117
COc1cccc(-c2oc3ccc(C)cc3c(=O)c2O)c1,115,121
